Screens deposited in PubChem by National Center for Advancing Translational Sciences (NCATS).
miR-21 reporter: miR-21 reporter, rising signal; HeLa miR-21 FLuc reporter, luciferase, 48 h; Potency, µM (series often up to 38.3 µM), for inactives: at the highest dose reporter change, positive = more light; 340,000 tested, under 10 active; active = well fitted rising curve with a large enough effect; inconclusive = small, poorly fitted or top-dose-only effect; inactive = no such curve, though single readings can be large or run the other way;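 also: % of control where 0% means no effect; miR-21 action dims this reporter so a rising signal means less miR-21 action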
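Compounds were titrated across several concentrations (up to approximately 40 uM) and incubated 48 hours with HeLa miR-21-FLuc reporter cells (miR-21 target sequence downstream of FLuc, endogenous miR-21). Readout was firefly luciferase luminescence after lytic detection reagent.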
The depositor's hits bear a star; u = inconclusive.

smiles	miR-21 reporter
Cc1ccc(NC(=O)Nc2nnc(N3CCCC3)s2)cc1C	20%
CC(C)Oc1ccc(CNC(=O)c2ccc(CS(=O)Cc3ccccc3Cl)o2)cc1 (stereo not drawn)	2%
COc1cccc(C(=O)Nc2c(C(=O)N3CCN(c4ccc(F)cc4)CC3)oc3ccccc23)c1	2%
CCN(CC)c1ccc(NC(=O)Cn2cc3c(n2)CCCC3)c(C)c1	24%
O=C(Nc1ccc2oc(-c3cccc4c(Br)cccc34)nc2c1)c1ccc(Br)cc1	-3%
Cc1ccc(Nc2nnc(-c3ccc(C)c(S(=O)(=O)N4CCCCC4)c3)c3ccccc23)cc1	0%
CC(C)Oc1ccc(C(=O)NCC(c2ccc(N(C)C)cc2)N2CCc3ccccc32)cc1 (stereo not drawn)	-7%
CCC(C(=O)NCc1ccccc1OC)n1nc(C)n2c(cc3sccc32)c1=O (stereo not drawn)	-1%
CCc1ccc(NC(=O)CCNS(=O)(=O)c2ccc3c(c2)CCCC(=O)N3)cc1	-1%
CCCn1cc(S(=O)(=O)c2ccc(C)c(C)c2)c(=O)c2cc(F)c(N3CCC(C)CC3)cc21	1%
CCOC(=O)C1CCN(C(=O)c2nn(-c3ccc(OC)cc3)c(=O)c3c2c2ccccc2n3C)CC1	2%
CCN(c1cccc(C)c1)S(=O)(=O)c1cc(Br)cc2c1N(C(C)=O)C(C)C2 (stereo not drawn)	u
CCOc1ccc(-n2c(CC)nc3c(cnn3-c3ccc(Cl)cc3)c2=O)cc1	3%
COc1ccc(-n2ncc(C(=O)Nc3ccc(C)cc3Cl)c2C2CCN(C(=O)OC(C)(C)C)CC2)cc1	6%
CCOC(=O)c1ccc(NS(=O)(=O)c2cc(Br)cc3c2N(C(C)=O)C(C)C3)cc1 (stereo not drawn)	24%
COc1ccc(CNC(=O)C2CCCN(S(=O)(=O)N(C)c3ccc(F)cc3)C2)cc1OC (stereo not drawn)	u
CCN1CCN(Cc2c(C(=O)N/N=C(\C)c3ccc(Cl)c(Cl)c3)nnn2-c2nonc2N)CC1	9%
COc1cc(Cl)c(C)cc1NC(=O)c1cn(CC(C)C)c(=O)c2cc(OC)c(OC)cc12	6%
O=C(CSc1nc2c([nH]c3ccccc32)c(=O)n1-c1ccc(F)cc1)N1CCc2ccccc21	2%
CCc1ccc(S(=O)(=O)c2cnc(SCC(=O)Nc3ccc(OC)cc3OC)[nH]c2=O)cc1	14%
Cc1cccc(NS(=O)(=O)c2ccc3c(c2)[C@H]2C=CC[C@H]2[C@@H](c2ccc(F)cc2)N3)c1	7%
Cc1ccc2oc(-c3ccc(C)c(NC(=O)c4ccc5c(c4)OCCO5)c3)nc2c1	-31%
Cc1cc(=O)n(Cc2ccc(F)cc2Cl)c2c1c(C)nn2C	-10%
CC(=O)Nc1nonc1-c1nnc(SCC(=O)Nc2c(C)cccc2C)n1-c1ccccc1	-8%
COc1ccccc1Cc1nc2ccccc2nc1SCC(=O)Nc1cccc(Cl)c1C	8%
COc1ccc(N2CCN(CCCNC(=O)c3nnc(Cc4ccc(F)cc4)o3)CC2)cc1	-1%
CCC(C)(C)C1CCc2c(sc(NC(=O)C3c4ccccc4Oc4ccccc43)c2C(N)=O)C1 (stereo not drawn)	2%
COc1cccc(N2CC(NC(=O)/C=C\c3ccc(OC)c(OC)c3)CC2=O)c1 (stereo not drawn)	-3%
COc1ccc(C)cc1NC(=O)CN1c2ccccc2S(=O)(=O)c2ccccc21	-3%
CCCCNc1sc(S(=O)(=O)CCC)nc1S(=O)(=O)c1ccc(C)cc1	9%
Cc1ccc(CNC(=O)CCCN2C(=O)COc3ccc(C)cc32)cc1	-1%
O=C(COc1ccccc1F)Nc1ccc2nc(SCC(=O)N3CCc4ccccc43)sc2c1	-12%
COc1cccc(NC2=CC(c3ccc(C(C)C)cc3)N(c3cccc(OC)c3)C2=O)c1 (stereo not drawn)	-35%
CCSc1nc(-c2ccc(Cl)cc2)nc2c1Cc1c(CO)cnc(C)c1O2	-3%
Cc1ccc(NC(=O)CN2C(=O)C3(SCC(=O)N3c3ccc(F)c(F)c3)c3ccccc32)c(C)c1 (stereo not drawn)	17%
CCOc1ccc(-c2nnc(SCC(=O)NC3CCCCC3)nc2-c2ccc(OCC)cc2)cc1	0%
Cc1ccc2c(c1)c(=O)c(C(=O)c1ccncc1)cn2CC(=O)Nc1c(C)cccc1C	-1%
O=C(CCNS(=O)(=O)c1ccc2c(c1)CCN2C(=O)C1CC1)Nc1ccc(OC(F)(F)F)cc1	5%
O=c1c(-c2ccc(Cl)cc2)c(C(F)(F)F)oc2c(CN3CCCCC3)c(O)ccc12	1%
O=C(Cn1c2ncccc2c(=O)n1-c1ccccc1)Nc1cccc(C(F)(F)F)c1	-7%
CCCn1c(CCC(=O)Nc2ccc(C)c(Cl)c2)nc2cccnc21	-8%
COc1ccc2c(Sc3ccc(Cl)cc3)c(C(=O)N3CCCCC3)[nH]c2c1	21%
Cc1ccc(CSc2ncc(Cl)c(C(=O)Oc3ccccc3F)n2)cc1	-6%
CCOc1ccc(-c2cc(-c3nc(-c4cc(OC)c(OC)c(OC)c4)no3)[nH]n2)cc1	0%
CCOc1ccc(-n2c(-c3ccc(OC)cc3)cc3c2CC(C)(C)CC3=O)cc1	9%
COc1ccc(-c2nnc(SCC(=O)NCCc3ccc(OC)c(OC)c3)nc2-c2ccc(OC)cc2)cc1	6%
COc1ccc2c(c1)CCc1c(C(=O)Nc3c(C)nn(Cc4c(Cl)cccc4Cl)c3C)noc1-2	2%
O=S(=O)(Nc1cccc(-c2ccc(N3CCCCC3)nn2)c1)c1ccc(F)cc1F	-19%

Some of these compounds in order of their number in miR-21 reporter, highest first.
smiles	miR-21 reporter
COc1ccccc1Cc1nc2ccccc2nc1SCC(=O)Nc1cccc(Cl)c1C	8%
COc1ccc(-c2nnc(SCC(=O)NCCc3ccc(OC)c(OC)c3)nc2-c2ccc(OC)cc2)cc1	6%
COc1cccc(C(=O)Nc2c(C(=O)N3CCN(c4ccc(F)cc4)CC3)oc3ccccc23)c1	2%
COc1cccc(N2CC(NC(=O)/C=C\c3ccc(OC)c(OC)c3)CC2=O)c1 (stereo not drawn)	-3%

Further entries.
smiles	miR-21 reporter
Cc1ccc(NC(=O)Cn2c(-c3cncs3)nc3ccccc32)cc1Br	-2%
COc1ccc(-c2cc(C(F)(F)F)nc(SCCC(=O)Nc3ccc(NC(C)=O)cc3)n2)cc1	2%
CCCCOc1cccc(C(=O)Nc2cc(NC(=O)c3ccco3)ccc2OC)c1	28%
CCOc1ccc(NC(=O)N2CCN(c3nnc(C)c4c(C)n(-c5ccccc5)nc34)CC2)cc1	-4%
COC(=O)c1ccc(C(=O)OC)c(NC(=O)c2cnn3c(C(F)F)cc(-c4ccccc4)nc23)c1	-1%
N=c1n(CCN2CCCCC2)c2ccccc2n1CC(O)COc1ccc(Cl)cc1Cl (stereo not drawn)	u
CCc1nn(CC(=O)N2CCN(c3cccc(C)c3C)CC2)c(=O)c2cc3sccc3n12	-2%
CCOc1ccccc1NC(=O)CN1C(=O)C2(SCC(=O)N2c2ccc(C)cc2)c2ccccc21 (stereo not drawn)	26%
CC(=O)N1CCCc2cc(S(=O)(=O)N(CCN(C)C)Cc3ccccc3)ccc21	0%
COc1ccc(OCc2nc(C#N)c(NCc3ccccc3Cl)o2)cc1	-4%
O=C(NCCc1ccccc1)c1nn(-c2ccc(F)cc2)nc1CO	9%
CCC(=O)N1CCc2cc(S(=O)(=O)NC(Cc3ccccc3)C(=O)Nc3ccc(C)cc3)ccc21 (stereo not drawn)	-2%
O=C(Nc1cccc(-c2nc3ccccc3[nH]2)c1)c1ccccc1F	-26%
O=C(Cn1cnc2onc(-c3ccc(Cl)cc3)c2c1=O)Nc1ccc(F)cc1	4%
CCCC(=O)c1ccc(OC(=O)c2c(-c3ccccc3Cl)noc2C)cc1	-9%
COc1ccc(NC(=O)N2CCc3c(sc4c3CCCC4)C2c2ccccc2OC)cc1 (stereo not drawn)	2%
O=S(=O)(Nc1cccc(-c2ccc(N3CCCCC3)nn2)c1)c1ccc(Cl)s1	-21%
CCOC(=O)CSc1nc(-c2ccc(OC)cc2)cc(C(F)(F)F)c1C#N	0%
CC(C)c1ccc(NS(=O)(=O)c2ccc3[nH]c(=O)ccc3c2)cc1	2%
Cc1ccc(CNCc2cccn2-c2nnc(N3CCCC3)s2)cc1	-2%
COc1cc(OC)c(N(C)C(=O)CSc2c3c(nc4ccc(Cl)cc24)CCCC3)cc1Cl	u
Oc1ccc(Cl)cc1C1=Nc2ccccc2N=C(c2ccccc2)C1	-9%
CCCSc1ncc(Cl)c(C(=O)Nc2sc3c(c2C(=O)NCC)CCCC3)n1	2%
CCc1nnc2c3ccccc3nc(Nc3ccc(F)cc3C)n12	-22%
CCc1ccc(-n2nc(C)c3c(C(=O)Nc4cccc(C(F)(F)F)c4)cc(C)nc32)cc1	30%
CC(=O)Nc1ccc2nc3c(=O)n(C)c(=O)n(C)c3nc2c1C	-1%
CCc1ccc2c(c1)c(=O)c(S(=O)(=O)c1ccc(Cl)cc1)cn2CC	4%
Cc1cc(C)c2c(=O)cc(C(=O)Nc3sc4c(c3C(=O)NCc3ccco3)CCCC4)oc2c1	-1%
CCCCn1c(=O)n(CC2CCC(C(=O)NCCCOC)CC2)c(=O)c2sccc21 (stereo not drawn)	-3%
CCOc1ccccc1Oc1ncnc2c1oc1ccccc12	23%
CC(=O)c1ccc(NS(=O)(=O)c2cc(-c3cc(C)no3)ccc2C)cc1	20%
CCc1ccc(-n2nc(CO)c(C(=O)NCCOC)n2)cc1	-38%
CCC(C)[C@H](N)c1nnc(SCc2ccc(Cl)c(Cl)c2)o1 (stereo partly drawn)	u
O=C(NCc1ccc2c(c1)OCO2)c1ccc2c(c1)N(Cc1ccccc1F)C(=O)c1ccccc1S2	-11%
CC(C)Sc1nc2sc3c(c2c(=O)n1Cc1ccccc1)CCCC3	-4%
CCOc1ccccc1C(=O)NCC(c1ccc(N(C)C)cc1)N1CCc2ccccc21 (stereo not drawn)	0%
COc1ccc(-c2nnc(SCC(=O)Nc3cc(OC)ccc3OC)nc2-c2ccc(OC)cc2)cc1	5%
O=C(NCc1nc2ccccc2[nH]1)c1c(F)cccc1F	-3%
Cc1ccc(OCC(=O)Nc2c(C(=O)c3ccccc3)oc3ccccc23)cc1C	0%
Cc1nn2c(C)c(C(=O)NCc3ccc(OC(C)C)cc3)cnc2c1-c1ccc(F)cc1	-2%
Cc1ccc(-n2nc(C)c3c(C(F)(F)F)cc(-c4cccnc4)nc32)cc1Cl	1%
Cc1nn(CCCC(=O)Nc2ccccc2C(F)(F)F)c(=O)c2c1sc1ccccc12	-35%
O=S(=O)(NCC(c1ccco1)N1CCOCC1)c1ccc(F)cc1 (stereo not drawn)	4%
Cn1ncc2c(Nc3cccc(F)c3)ncnc21	-1%
CCc1cccc(-n2nnc(S(=O)(=O)c3ccc(OC)cc3)c2C)c1	7%
COc1ccc(CCCc2nnc(SCC(=O)Nc3ccc(C)cc3)o2)cc1C	-2%
CCOc1ccc2c(c1)c(=O)c(C(=O)c1ccc(CC)cc1)cn2CC(=O)Nc1cccc(Cl)c1	2%
COc1ccc(CNCCCSc2nnnn2C)c(OC)c1	-2%
CCn1c(=O)c2cc(C(=O)NCCc3cc(OC)ccc3OC)sc2c2ccccc21	0%
CC(C)(C)OC(=O)N1CCC(c2c(C(=O)NCCN3CCCC3)cnn2-c2ccc(Cl)cc2)CC1	-5%
CCOC(=O)c1cccc(Nc2cc(-c3ccccc3)ncn2)c1	u
CN(Cc1ccco1)C(=O)c1ccc2c(c1)N(Cc1ccccc1F)C(=O)c1ccccc1S2	-2%
O=C(Nc1cc(-c2nc3cc(Cl)ccc3o2)ccc1Cl)c1cccs1	-5%
COc1ccccc1Nc1ncnc2c1nc1n2CCCCC1	-9%
COc1ccc(CC(=O)NC2CC(=O)N(c3ccc(C)c(C)c3)C2)cc1OC (stereo not drawn)	-3%
CSC1=NC2(CCN(C(=O)NC3CCCCC3)CC2)N=C1c1ccc(C)c(C)c1	-1%
CCOc1cc(/C=C/c2nc3ccccc3c(=O)[nH]2)cc(Br)c1OC	-2%
COc1cccc(CSc2nc3cc(OC)c(OC)cc3c3nc(CCn4nc(C)cc4C)nn23)c1	-3%
COc1ccccc1CNC(=O)c1ccc2nc(N3CCCCC3)sc2c1	-5%
CCC(C)Sc1oc(-c2ccco2)nc1S(=O)(=O)c1ccc(C)cc1 (stereo not drawn)	9%
Cn1c(=O)c2c(nc(CN3CCN(c4ccccc4F)CC3)n2Cc2ccc(F)cc2)n(C)c1=O	-11%
Cc1ccsc1CCN1C(=O)N(c2ccccc2)C(=O)C1CC(=O)Nc1ccc(Cl)cc1 (stereo not drawn)	30%

Of the compounds above, 2 have a cyano group.
smiles	miR-21 reporter
COc1ccc(OCc2nc(C#N)c(NCc3ccccc3Cl)o2)cc1	-4%
CCOC(=O)CSc1nc(-c2ccc(OC)cc2)cc(C(F)(F)F)c1C#N	0%

Not all compounds are listed; count on the stated rates, not on these rows.
